# KCNQ2 enhance: potentiators of rat KCNQ2 potassium channel. B-score at 10 µM. O88943. 310,000 tested, 0.54% active. CHO-K1 KCNQ2, FluxOR thallium flux fluorescence; hits give high values;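 active = fluorescence ratio B-score at least 3 SD of library B-scores, with initial fluorescence B-score within 3 SD, cut at about 5.3 in these data; same plate scores as AID 2156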;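 also: B-score of peak minus minimum over baseline fluorescence ratio after K+ and Tl+ stimulus; positive B-score means potentiation of KCNQ2 with more thallium influx and brighter signal; only the inactives scoring about 0 or higher are listed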
# Target sequence (O88943 whole entry, looked up): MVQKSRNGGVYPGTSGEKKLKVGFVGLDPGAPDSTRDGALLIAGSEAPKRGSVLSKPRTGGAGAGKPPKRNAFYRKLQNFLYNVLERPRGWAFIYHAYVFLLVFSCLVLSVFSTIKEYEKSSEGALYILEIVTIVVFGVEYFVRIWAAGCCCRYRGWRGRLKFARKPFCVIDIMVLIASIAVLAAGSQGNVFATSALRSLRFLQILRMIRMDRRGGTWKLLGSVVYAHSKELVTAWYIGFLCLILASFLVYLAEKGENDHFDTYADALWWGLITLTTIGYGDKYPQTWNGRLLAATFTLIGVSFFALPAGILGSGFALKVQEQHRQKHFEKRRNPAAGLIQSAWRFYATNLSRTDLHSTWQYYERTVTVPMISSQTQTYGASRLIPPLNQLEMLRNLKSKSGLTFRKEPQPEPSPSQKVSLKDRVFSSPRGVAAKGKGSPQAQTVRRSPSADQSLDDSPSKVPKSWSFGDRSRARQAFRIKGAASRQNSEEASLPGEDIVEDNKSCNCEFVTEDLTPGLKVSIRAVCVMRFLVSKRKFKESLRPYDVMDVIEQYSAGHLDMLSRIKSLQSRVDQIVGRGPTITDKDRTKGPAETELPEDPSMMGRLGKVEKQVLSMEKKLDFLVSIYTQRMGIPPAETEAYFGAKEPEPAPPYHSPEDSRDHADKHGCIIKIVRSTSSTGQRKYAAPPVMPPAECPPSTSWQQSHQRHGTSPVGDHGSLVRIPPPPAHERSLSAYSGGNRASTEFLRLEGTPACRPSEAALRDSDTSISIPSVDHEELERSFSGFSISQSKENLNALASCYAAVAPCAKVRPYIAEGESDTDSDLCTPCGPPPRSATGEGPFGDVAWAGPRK
# KCNQ2 enhance baseline: second read-out of KCNQ2 enhance, no call of its own (marks repeat the call); B-score; compound at 10 µM; measured here: initial fluorescence intensity artifact check;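 brightness before thallium and not channel activity; 0 = typical well and far values either way flag optical interference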
# The depositor's hits bear a star.
SMILES,KCNQ2 enhance,KCNQ2 enhance baseline
CC1CN(c2oc(-c3ccccc3Cl)nc2C#N)CC(C)O1 (stereo unspecified),1.7,0.25
COc1ccc(N=C(N)N=C(N)N)c(OC)c1,0.33,0.29
CCCCN(CC)C(=O)CN(C)S(=O)(=O)c1cccc2nsnc12,0.91,-0.63
Cc1cc(O)c(C(=O)/C=C/c2ccccc2O)c(=O)o1,0.46,1.6
O=C1CSC(=S)N1/N=C/c1ccc2c(c1)OCCO2,0.16,-2.1
Cc1ccc(S(=O)(=O)Nc2ccc(-c3nc4ccc(C)cc4s3)cc2)cc1,0.06,0.42
COc1cc(C(=O)N2C[C@H]3CC[C@H]2C3)ccc1OC1CCN(C(C)=O)CC1,0.23,0.7
Cc1cccc(N2CCN(c3ccc(N4C(=O)CCCC4=O)cc3[N+](=O)[O-])CC2)c1C,0.02,0.04
CC(=O)NC(Cc1cccc(F)c1)C(=O)NC1CCN(C(=O)Nc2ccc(C)cc2)CC1 (stereo unspecified),1.1,0.93
O=C(Nc1ccc2c(c1)OCCO2)C1CCN(c2cnccn2)CC1,0.7,-0.65
O=C1CNC(=S)N1C1CCCCCC1,1.6,-1.7
O=S(=O)(NCc1ccccc1)c1ccc(S(=O)(=O)NCC2CCCO2)cc1 (stereo unspecified),0.65,-1.1
CCOC(=O)c1c(C)c(C(=O)N2CCN(c3ccccc3)CC2)c(C)n1C,0.01,2
COc1cccc(CNCc2cc(OC)cc(OC)c2)c1,0.65,-1.1
COc1ccc(S(=O)(=O)N2CCCCC2)cc1NC(=O)CSc1nccn1C,0.57,0.29
Cc1ccccc1Nc1ncnc(N)n1,0.34,0
COc1ccc(/C=N/NC(=O)c2cccc(C(=O)N/N=C/c3ccc(OC)c(OC)c3)n2)cc1OC,0.06,0.07
CCc1ccc(CNc2ccc(N3CCN(C(C)=O)CC3)cc2)cc1,0.07,-0.68
CCOc1ccc(CCNC(=O)c2ccc3c(c2)NC(=O)C2CCCN32)cc1OCC (stereo unspecified),1,-0.32
CC(C)(C)C(=O)N1CCN(c2ccc([N+](=O)[O-])c(-n3nc(-c4ccccc4)c4ccccc4c3=O)c2)CC1,0.67,0
O=C(c1[nH]ncc1-c1ccccc1)C1CO1 (stereo unspecified),0.75,-1
COc1ccccc1C(=O)N(CN1CCCC1=O)c1cccc(Cl)c1,0.04,0.74
CCn1c(C)[n+](CC(O)COCC2CC=CCC2)c2ccccc21 (stereo unspecified),0.91,0.51
Cc1ccc(-c2cc(C(=O)N/N=C/c3ccco3)n[nH]2)s1,3.3,-0.39
COc1cccc(-c2cc(C(F)(F)F)n3ncc(S(=O)(=O)c4ccccc4)c3n2)c1,0.26,-0.13
Cc1ccc(OCC(=O)Nc2ccc3c(c2)C(=O)NC3=O)cc1,0.04,1.4
CN(CC(=O)NCCc1ccc(S(N)(=O)=O)cc1)Cc1c(F)cccc1Cl,0.19,-1.7
O=C(COC(=O)c1ccccc1)Nc1ccc2[nH]c(=O)[nH]c2c1,1.2,-1.4
Cc1cc(C)nc(NS(=O)(=O)c2ccc(NC(=S)NC(=O)c3cccnc3)cc2)n1,0.01,0.97
Brc1cccc2sc(N3CCCC3)nc12,1.6,0.02
O=c1cc(CSc2nnc(COc3ccccc3Cl)o2)nc2sccn12,1.7,-0.26
CCOC(=O)C1=C(C)N(C)C(=O)NC1c1ccc(C)s1 (stereo unspecified),1.5,0.2
Cc1ccccc1NC(=S)NNC(=O)c1cccnc1,0.19,1.4
O=c1[nH][nH]c(-c2ccccc2)c1C=Nc1ccccc1,0.17,0.7
Nc1nc2c(-c3ccc(Br)cc3)nnn2c2ccccc12,0.6,-1.2
N#CCSc1ncnc2c1cnn2CCO,1,-1.3
CC(NC(=O)COC(=O)/C=C/c1ccc(Cl)cc1)c1ccccc1 (stereo unspecified),0.39,0.06
O=C(CSc1n[nH]c(-c2cc(Cl)ccc2Cl)n1)NCCN1C(=O)CSC1=O,0.02,1.1
CC(C)c1ccc(-c2csc(NC(=O)c3cccs3)c2C(=O)O)cc1,1.3,1.6
CCc1ccc(N2C(=O)c3ccc4c5c(ccc(c35)C2=O)CC4)cc1,0.76,0.33
Cc1nnc2sc(-c3cccc(F)c3)nn2c1=O,0.69,1.1
NS(=O)(=O)c1ccc(CCNc2ncnc3c2c(-c2ccccc2)cn3-c2ccc(F)cc2)cc1,0.31,-0.33
C[C@H]1CC[C@@]2(O[C@@H](CCO)C[C@H](O)[C@H]2O)O1,0.12,1.6
COc1ccc(C)cc1S(=O)(=O)Nc1cccc(-c2cn3cccnc3n2)c1,0.06,-0.27
CCCCn1c(CCNC(=O)CC)nc2ccccc21,0.1,-1.4
CC(=O)Nc1ccc([C@H]2[C@H](C)CC[C@H]3C(=O)N4[C@@H](CC[C@@H](C)[C@@H]4c4ccc(NC(C)=O)cc4)C(=O)N32)cc1,0.28,-0.68
NNC(=O)Cn1c(SCc2ccccc2)nc2ccccc21,0.77,-1.7
Cc1cc2c(C)nc(-c3ccccc3)nc2o1,0.44,-1.4
CCCn1c(N)c(N(CCOC)C(=O)c2cccc(Cl)c2)c(=O)[nH]c1=O,2.7,0.13
CCC(C)NC(=O)C1=CCN(S(=O)(=O)c2ccc(C)cc2)CC1 (stereo unspecified),0.86,0.97
C=CCn1c(SCc2ccc(C(=O)NCCO)cc2)nc2ccccc2c1=O,0.19,0.68
CCC1Oc2ccc(C)cc2N(CC(=O)NCCCN2CCCC2)C1=O (stereo unspecified),1.2,-1.2
COC(=O)c1ccc(-c2nc(CN3CCN(Cc4cccc(C)c4)CC3)c(C)o2)cc1,0.09,-0.91
O=C(O)C1CCCCC1C(=O)Nc1ccc2c(c1)OCCO2 (stereo unspecified),1.6,-0.05
O=C(NC(=S)Nc1cccnc1)c1cccc(Br)c1,2.9,2.1
COCCOC(=O)/C(C#N)=C/c1cn(Cc2ccccc2)nc1-c1cccnc1,0.03,1.1
COc1ccccc1-c1cc(C(=O)NCCc2ccccc2)no1,0.03,1.6
Cc1c(C(=O)C(=O)N2CCCc3ccccc32)c2ccccc2n1C,0.31,1.6
Cc1ccc(NS(=O)(=O)c2cc(C(=O)Nc3cccnc3)ccc2C)cc1,0.06,0.03
COc1ccc(C(=S)Nc2ccc(N(C)C)cc2)cc1,1.8,-0.01

# Going on with the list.
SMILES,KCNQ2 enhance,KCNQ2 enhance baseline
COCCN1C(=O)c2ccccc2C(C(=O)NCC2CCCO2)C1c1c[nH]c2ccccc12 (stereo unspecified),1.1,2.4
COc1cccc(/C=N/NC(=O)C(=O)N2CCCC2)c1OC,0.45,0.16
CCOc1cc2[nH]c(=S)n(C(C)C)c(=O)c2cc1OCC,0.5,-0.97
Cn1cnnc1SCC(=O)c1ccco1,0.65,1.4
COc1ccc(CC(=O)NCC2CCCN(Cc3ccc(OC(F)(F)F)cc3)C2)cc1 (stereo unspecified),3,2.8
CC(C)c1ccc(OCC(=O)NC2CC(C)(C)NC(C)(C)C2)c(Br)c1,0.47,1.1
Cc1ccc(NC(=O)c2cccc(S(=O)(=O)N3CCCC3)c2)nc1,1.1,0
O=C(NCC1CCN(Cc2ccccc2F)CC1)Nc1ccccc1F,0.85,0.05
COc1ccc(/C=N/N=C2/NC(=O)C(c3ccccc3)S2)c(OC)c1 (stereo unspecified),0.07,0.19
COC(=O)c1[nH]nc2c1C(=O)N(C1CCCCC1)C2=O,1.7,-2
CCOc1ccccc1CN1CCN(C2CCN(c3ccccc3F)CC2)CC1CCO (stereo unspecified),0.67,0.64
COc1cc2c(cc1OC)CN(C(=O)c1cccs1)CC2,1.7,0.02
COc1cc(OC)cc(C(=O)N2CCN(Cc3ccccc3[N+](=O)[O-])CC2)c1,1.5,-2.3
C=CCn1c(SCC(=O)NC)nc2sc3c(c2c1=O)CCC3,0.5,1.2
CC1CCCC(NC(=O)Cn2cc3c(n2)CCCCC3)C1C (stereo unspecified),0.2,-0.39
COc1ccc(-c2cc(-c3ccc(C)cc3)n[nH]2)c(O)c1,7*,-0.75*
CS(=O)(=O)N(CC(=O)NCc1ccccc1)C1CCCCC1,1.2,0.32
O=C(CS(=O)c1ccc(C(F)(F)F)cc1[N+](=O)[O-])Oc1ccc(Cl)cc1 (stereo unspecified),0.09,-0.67
CCNC(=O)/C(C#N)=C/c1c(N2CCN(c3ccccc3)CC2)nc2c(C)cccn2c1=O,0.02,2.4
Cc1cccc(NC(=O)c2ccc3c(c2)CCN3S(C)(=O)=O)c1,0.5,2.1
COc1ccc(OC)c(S(=O)(=O)N2CCC(NC(=O)c3ccccc3)CC2)c1,0.47,-0.58
CCOC(=O)C1CCCN(C(=O)COc2ccc(S(=O)(=O)N(CC)c3ccccc3)cc2)C1 (stereo unspecified),1.1,5.4
N#CCCN(Cc1ccccc1)C(=O)c1cccs1,0.55,1.2
O=C(Nc1ccccc1)C1=C(c2ccccc2)S(=O)(=O)CCS1(=O)=O,8.1*,0.34*
O=C(/C=C\c1ccccc1)Oc1cccc2cccnc12,1.4,0.06
COc1ccc(NC(=O)COc2ccccc2C#N)c(S(=O)(=O)N2CCCCC2)c1,1.7,-1
N#CNC(=Nc1cccc(F)c1)SCc1cccc(F)c1,1,-1.4
CCCc1oc(C(=O)O)cc1CN,0.66,0.01
Cc1cc(C)n(CC(=O)c2cccc([N+](=O)[O-])c2)n1,0.17,0.08
CC1CCCN(C(=S)SCC(=O)c2cc(Br)cc(Br)c2O)C1 (stereo unspecified),0.66,-0.19
CC(O/N=C/c1ccccc1OC(F)F)C(=O)Nc1cccc(S(=O)(=O)N2CCOCC2)c1 (stereo unspecified),2.7,0.84
COc1ccc(N2CCN(C(=O)C(=O)c3cn(CC(=O)N4CCCCCC4)c4ccccc34)CC2)cc1,0.05,0.09
CSc1nc2ccc(Cl)cc2[nH]1,0.52,1.5
CC(C)CCNC(=O)NC(=O)CSc1nnc(COc2ccccc2Cl)o1,3.1,-0.59
CS(=O)(=O)c1ccc(Cl)c(NC(=O)C2CC(=O)N(Cc3ccccc3)C2)c1 (stereo unspecified),0.14,-1.7
CCN(CC)CCCN(Cc1cc2cc3c(cc2[nH]c1=O)OCO3)C(=S)NCCOC,0.05,-1.3
COC(=O)C(CCCCNC(=O)c1ccc([N+](=O)[O-])cc1)NC(=O)c1ccc([N+](=O)[O-])cc1 (stereo unspecified),0.04,-0.34
COc1ccc(F)cc1C(=O)C1CCCN(C(=O)Cc2c(C)noc2C)C1 (stereo unspecified),0.22,-0.32
COc1cccc(NS(=O)(=O)c2ccc3[nH]cc(C(=O)NCCN4CCOCC4)c(=O)c3c2)c1,1.1,-0.65
CCN1CCN(C(=S)c2ccc(Cl)c(Cl)c2)CC1,1.2,2.1
O=C(c1ccc2c(c1)OCO2)N1CCCC1,0.31,0.01
O=C1CSC(c2cn(-c3ccccc3)nc2-c2cc3ccccc3oc2=O)N1Cc1ccccc1 (stereo unspecified),0.64,-0.67
O=C(COc1ccc(S(=O)(=O)N2CCCCC2)cc1)NCC1CCCO1 (stereo unspecified),0.65,0.3
Cc1ccc(S(=O)(=O)Nc2cc(=O)[nH]c(SCc3ccccc3Cl)n2)cc1,1.6,-0.44
O=C(Nc1cccc(F)c1)c1coc(=O)c(Br)c1,0.23,0.34

# Pulled by compound from above, two records:
SMILES,KCNQ2 enhance,KCNQ2 enhance baseline
CCN(CC)CCCN(Cc1cc2cc3c(cc2[nH]c1=O)OCO3)C(=S)NCCOC,0.05,-1.3
CS(=O)(=O)c1ccc(Cl)c(NC(=O)C2CC(=O)N(Cc3ccccc3)C2)c1 (stereo unspecified),0.14,-1.7

# Carrying on:
SMILES,KCNQ2 enhance,KCNQ2 enhance baseline
COc1cccc(/C=C/C(=C2/C(=O)N(c3ccccc3)N=C2C)c2ccc(Br)cc2)c1OC,1,-0.68
CC(C)CCn1c(SCCc2ccccc2)nc2c1c(=O)[nH]c(=O)n2C,0.14,-0.54
CC1Cc2ccccc2N1C(=O)Cn1c(=O)oc2cc(S(=O)(=O)N3CCCCC3)ccc21 (stereo unspecified),0.91,-0.56
CCCN1CCC(=NNC(=O)c2ccc(Br)o2)CC1,1.9,1.2
O=C(Oc1coc(CSc2nnc(NC(=O)c3cccs3)s2)cc1=O)c1ccccc1,0.44,0.55
CC(CNC(=O)c1cc(Cl)ccc1[N+](=O)[O-])NC(=O)c1cc(Cl)ccc1[N+](=O)[O-] (stereo unspecified),1,-1.7
Cc1cccn2c(=O)nc(SCC(=O)N3CCC(C)CC3)nc12,0.03,-1.6
CSc1ccc(S(=O)(=O)NCC(=O)OC2CCOC2=O)cc1[N+](=O)[O-] (stereo unspecified),1,-1.6
O=C(O)CSc1sc(=S)sc1SCC(=O)O,0.94,-1.4

# Entries shown so far containing an NH in an aromatic ring, in the order listed:
SMILES,KCNQ2 enhance,KCNQ2 enhance baseline
O=C(c1[nH]ncc1-c1ccccc1)C1CO1 (stereo unspecified),0.75,-1
Cc1ccc(-c2cc(C(=O)N/N=C/c3ccco3)n[nH]2)s1,3.3,-0.39
O=C(COC(=O)c1ccccc1)Nc1ccc2[nH]c(=O)[nH]c2c1,1.2,-1.4
O=c1[nH][nH]c(-c2ccccc2)c1C=Nc1ccccc1,0.17,0.7
O=C(CSc1n[nH]c(-c2cc(Cl)ccc2Cl)n1)NCCN1C(=O)CSC1=O,0.02,1.1
CCCn1c(N)c(N(CCOC)C(=O)c2cccc(Cl)c2)c(=O)[nH]c1=O,2.7,0.13
COCCN1C(=O)c2ccccc2C(C(=O)NCC2CCCO2)C1c1c[nH]c2ccccc12 (stereo unspecified),1.1,2.4
CCOc1cc2[nH]c(=S)n(C(C)C)c(=O)c2cc1OCC,0.5,-0.97
COC(=O)c1[nH]nc2c1C(=O)N(C1CCCCC1)C2=O,1.7,-2
COc1ccc(-c2cc(-c3ccc(C)cc3)n[nH]2)c(O)c1,7*,-0.75*
CSc1nc2ccc(Cl)cc2[nH]1,0.52,1.5
CCN(CC)CCCN(Cc1cc2cc3c(cc2[nH]c1=O)OCO3)C(=S)NCCOC,0.05,-1.3
COc1cccc(NS(=O)(=O)c2ccc3[nH]cc(C(=O)NCCN4CCOCC4)c(=O)c3c2)c1,1.1,-0.65
Cc1ccc(S(=O)(=O)Nc2cc(=O)[nH]c(SCc3ccccc3Cl)n2)cc1,1.6,-0.44
CC(C)CCn1c(SCCc2ccccc2)nc2c1c(=O)[nH]c(=O)n2C,0.14,-0.54

# Not all compounds are listed; the hit share may differ from the screen's.
